# ugtP null kill – growth inhibition of S. aureus ugtP deletion strain | 0.54% of 330,000 active | S. aureus RN4220 ugtP deletion, OD600 growth, 16 h; some inactives read as strong as hits | growth inhibition, % (no concentration beside the values);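 active = z-score under -3 and OD600 up to 0.15 on both plates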;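 note: plate controls were untreated wells for no effect and antibiotic for full effect; wells of about 80 µL received 100 nL stock; the first replicate is given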
# Mtb hypoxia inh – reduces hypoxia-regulated biosensor signal in M. tuberculosis | M. tuberculosis hypoxia-regulated fluorescent reporter, fluorescence | fluorescence inhibition, % (concentration not given with the values) | 0.1% of 300,000 active | AID 1159583;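 active = 35 to 45% if threefold the growth effect, above 45% if 1.5-fold the growth effect; inactive = the rest, general growth blockers included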;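 note: wells of about 50 µL received 100 nL stock; 0% = vehicle wells and 100% = reference inhibitor wells; whole bacteria with a GFP reporter of the hypoxia response; strong numbers were not always called active; many hits fall short of the cut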
# PrP UTR inh – suppresses PrP 5' UTR mRNA reporter expression; cell-based PrP 5' UTR mRNA reporter, plate reader; inhibition, % (test concentration not listed); 0.35% of 340,000 active;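 active = every replicate at 50% or more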;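 note: 0 = median of the neutral control wells; tested in H4 reporter cells; numbers are from one replicate; inactives centre near -14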
# BJeLR viability – BJeLR cell viability loss. BJeLR (HRASV12) viability, CellTiter-Glo ATP luminescence, 48 h; reference of the scale not given here. AID 1554. 0.17% of 300,000 active. inhibition, % (no concentration beside the values);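 active = replicate mean above 50%; inconclusive = above 50% but judged a plate artefact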;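 note: 50 nL library stock added to about 25 µL; numbers are from one replicate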
# RN4220 kill – kills Staphylococcus aureus RN4220. S. aureus RN4220 growth, OD600, 16 h. inhibition, % (test concentration not listed). 0.33% of 330,000 active. AID 1259311;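 active = z-score of -3 or lower and OD600 up to 0.18 on both plates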;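 note: plate controls were untreated cells for no effect and reference antibiotic for full effect; stock transfer was 100 nL into about 80 µL; one replicate is shown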
# Autofluor counter – flagged as autofluorescent in microsphere protease counterscreen; fluorescence intensity (concentration not given with the values); compound autofluorescence counterscreen, microsphere flow cytometry; hits give high values; 3.1% of 360,000 active;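 active = at least 3 SD above the mean of all compounds, about 16000 in these data; inconclusive = too few beads counted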;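 note: 100 nL of 1 mM stock went into each well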
# Mtb hypoxia inh growth – recorded beside Mtb hypoxia inh, whose call it bears; growth inhibition, %; measured here: M. tuberculosis growth (absorbance);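 0% = vehicle and 100% = reference antibiotic; read after six days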
# An asterisk follows results filed as active; u = inconclusive; x = no result given.
nr	SMILES	ugtP null kill	RN4220 kill	PrP UTR inh	Mtb hypoxia inh growth	Mtb hypoxia inh	Autofluor counter	BJeLR viability
1	CCN(CC)C(=O)c1ccc(N)cc1	5	4.6	-12	11	7	3234	-2
2	Cc1cc(OCc2nn[nH]n2)c2c3c(c(=O)oc2c1)CCC3	-5	3.8	-26	10	4	19295*	1
3	CCC1CCc2sc(C(=O)OCC(=O)N(CCOC)c3c(N)n(Cc4ccccc4)c(=O)[nH]c3=O)cc2C1 (configuration not stated)	5	0.7	-16	12	6	x	-2
4	O=C(Nc1nnc(C2CCCO2)s1)c1ccc(Br)cc1 (configuration not stated)	-2	11	-53	7	0	23157*	x
5	Cn1cc(Cl)c(C(=O)OCC(=O)Nc2ccccc2)n1	1	1.7	3	x	x	2168	5
6	CC(=O)Oc1ccc(/C=c2\sc3ncnn3c2=O)cc1	x	x	-6	x	x	22478*	5
7	Nc1c2c(nc3ccccc13)N(c1ccccc1)CC2	7	1.4	-30	x	x	2917	-6
8	CN(CC(=O)Nc1ccc(Cl)c(C(F)(F)F)c1)C(=O)c1cnccn1	-9	8.2	-27	1	-2	2995	x
9	COc1ccc2cc(OC)c(C(=O)N3CCOCC3)cc2c1	6	0.5	-8	-3	2	2229	5
10	CC(=NNC(=O)c1cccc([N+](=O)[O-])c1)c1ccco1	8	3.8	x	11	15	x	x

# Just BJeLR viability and Mtb hypoxia inh, for two of the compounds above:
no. | structure | BJeLR viability | Mtb hypoxia inh
6 | CC(=O)Oc1ccc(/C=c2\sc3ncnn3c2=O)cc1 | 5 | x
10 | CC(=NNC(=O)c1cccc([N+](=O)[O-])c1)c1ccco1 | x | 15

# Three structures out of the list, sorted by SMILES length, lowest first.
nr	SMILES	ugtP null kill	RN4220 kill	PrP UTR inh	Mtb hypoxia inh growth	Mtb hypoxia inh	Autofluor counter	BJeLR viability
7	Nc1c2c(nc3ccccc13)N(c1ccccc1)CC2	7	1.4	-30	x	x	2917	-6
6	CC(=O)Oc1ccc(/C=c2\sc3ncnn3c2=O)cc1	x	x	-6	x	x	22478*	5
2	Cc1cc(OCc2nn[nH]n2)c2c3c(c(=O)oc2c1)CCC3	-5	3.8	-26	10	4	19295*	1

# Continued.
nr	SMILES	ugtP null kill	RN4220 kill	PrP UTR inh	Mtb hypoxia inh growth	Mtb hypoxia inh	Autofluor counter	BJeLR viability
11	Cc1ccc(NS(=O)(=O)c2ccccc2F)cc1S(=O)(=O)N1CCCCCC1	-4	16	-24	-7	6	5869	x
12	Cc1c(O)ccc2c(CN3CCN(C/C=C/c4ccccc4)CC3)cc(=O)oc12	-6	-4.5	-16	2	-3	4651	17
13	CC(C)COCc1ccc(O)c2ncccc12	8	15	17	11	13	4414	29
14	O=C(c1ccc([N+](=O)[O-])cc1[N+](=O)[O-])N1CCCC1	-1	0.5	0	11	5	4379	8
15	COc1cc(OC)c(S(=O)(=O)Nc2ccc(C(=O)O)cc2)cc1S(=O)(=O)Nc1ccc(C(=O)O)cc1	9	4.2	-11	-2	-7	5361	-12
16	C=CC[C@@H](Cc1ccc(F)cc1)C(=O)OC[C@H]1CCCN1C(=O)[C@H](CC=C)CC(=O)N(CCO)Cc1ccccc1	3	3.4	-19	2	4	3799	x
17	CCCOC(=O)c1c(NC(=O)CCCn2nc([N+](=O)[O-])c(Cl)c2C)sc(C(=O)OC)c1C	-11	25	-9	5	4	2548	1
18	CC(=O)Nc1ccc(S(=O)(=O)NCCC(=O)Nc2ccc(C)c(Cl)c2)cc1	0	1.6	-18	1	8	2104	-5
19	COc1ccc(CC2C(=O)NC(=O)N(c3ccccc3)C2=O)c(OC)c1 (configuration not stated)	4	2.2	-17	-2	1	12817	-5
20	CN(C)S(=O)(=O)c1ccc(Cl)c(C(=O)Nc2ccc(S(=O)(=O)N3CCOCC3)cc2)c1	1	1.9	-27	9	8	3799	-2
21	COc1ccccc1NC(=O)Cn1cnc2sc(C(=O)Nc3ccc(OC)c(OC)c3)c(C)c2c1=O	0	0.4	-17	1	4	6443	-4
22	O=C(COc1ccc(F)cc1Br)N1CCN(c2ncccn2)CC1	6	2.8	2	8	9	2399	-1
23	CSc1nc2c(c(=O)n1-c1ccc(C)cc1)SCC2	-2	2.4	-24	9	9	9041	-1
24	Cc1occc1C(=O)N/N=C/c1cccs1	x	x	-18	x	x	6052	1
25	CN(C(=O)COc1ccccc1)c1nc(-c2ccc(F)cc2)cs1	6	3.4	-22	-2	-5	2665	-4
26	CC1CCCC(NC(=O)C2COc3ccccc3O2)C1C (configuration not stated)	8	5.2	-13	x	x	2812	x
27	CCC(=O)Nc1ccc(C(=O)CSc2nc3ccccc3[nH]2)cc1	0	3.8	-16	6	8	2609	-4
28	Cc1ccc(N2C(=O)N(CC(=O)Nc3cc(Cl)ccc3C)C(=O)C2C)cc1 (configuration not stated)	-3	-0.4	-16	5	-8	u	-1
29	COc1ccc(C2CC23N=C(c2ccccc2)OC3=O)cc1 (configuration not stated)	11	6.0	-20	0	7	1907	-11
30	C=CCSc1nc2c(cc1C#N)CCC2	15	8.0	-11	5	13	21788*	-9

# Single entries from above:
# In BJeLR viability, `CN(C(=O)COc1ccccc1)c1nc(-c2ccc(F)cc2)cs1` is listed with -4
# In PrP UTR inh, `C=CCSc1nc2c(cc1C#N)CCC2` is listed with -11

# The listing continues:
nr	SMILES	ugtP null kill	RN4220 kill	PrP UTR inh	Mtb hypoxia inh growth	Mtb hypoxia inh	Autofluor counter	BJeLR viability
31	Cc1cccc2cc(CN(Cc3nnnn3Cc3ccccc3)C3CCCC3)c(=O)[nH]c12	-17	3.0	-21	4	2	7874	-4
32	CC(=NN=C(C)c1cccs1)c1cccs1	73	3.5	x	-3	-6	x	x
33	Cc1cccc(N=C2NC(=O)/C(=C/C=C/c3ccco3)S2)c1	-11	6.1	-23	2	-1	2319	-16
34	Cc1ccc(Nc2cnn(C34CC5CC(CC(CC(=O)O)(C5)C3)C4)c(=O)c2Cl)cc1C	1	2.4	-38	3	7	11075	-12
35	O=c1[nH]c(=S)n(CCC2=CCCCC2)c(O)c1C=NCc1cccnc1	1	2.5	-15	-1	-2	24166*	4
36	COc1ccccc1-c1cc(C(F)(F)F)nc(S(=O)(=O)CCCC(=O)NC(C)C)n1	8	-4.7	-8	x	x	3695	-4
37	O=C(Oc1cccc(OC(=O)N2CCCCC2)c1)N1CCCCC1	7	-1.4	-27	7	0	4339	-5
38	CCCNC(=O)CN(c1ccc(F)cc1)S(=O)(=O)c1ccc2c(c1)OCCO2	10	4.6	-33	1	3	9556	-5
39	Cc1sc2ncnc(SCC(=O)N(C(C)C)C(C)C)c2c1C	3	7.1	-24	4	-4	3948	-6
40	CC(=O)N(C)c1ccc(NS(=O)(=O)c2cc(Cl)ccc2Cl)cc1	0	11	-24	-1	6	2253	1
41	COc1cc(/C=N/NC(=O)c2ccccn2)ccc1OC(=O)c1ccccc1Br	x	x	-39	x	x	5734	-2
42	COc1ccc(OC)c(S(=O)(=O)N2CCN(c3ccc(F)cc3)CC2)c1	-3	4.4	1	0	10	3309	-4
43	COc1ccccc1NC(=O)CNC(=O)c1ccccc1	-1	1.3	-19	x	x	2610	2
44	CCSc1nnc(-c2ccc(OC)cc2)o1	-4	-3.3	-91	x	x	3046	3
45	COC(=O)c1ccc(COc2ccc(C=O)cc2OC)o1	4	2.8	-18	-6	-1	3237	-1
46	CC(=O)c1ccc(Nc2ccc(-c3ccccc3F)nn2)cc1	x	x	-117	x	x	5877	-26
47	COc1ccccc1-n1c(-c2ccccc2F)nc2ccccc2c1=O	25	3.0	-4	21	14	5776	-1
48	CCn1c(COc2cccc(C)c2)nnc1SCC(=O)Nc1cccc(C(=O)OC)c1	-23	5.0	-12	0	5	2363	-10
49	O=[N+]([O-])c1ccc(/C=C2\CCC(C3=CCCC3)=C2N2CCOCC2)cc1	x	x	-55	x	x	2539	2
50	O=S(=O)([O-])CCC[N+]1(CC#Cc2ccccc2)CCCCC1	-13	-2.1	1	2	-6	4620	2
51	CCOc1ccc2nc(N3CCCC(C(=O)NCCCN4CCOCC4)C3)sc2c1 (configuration not stated)	4	4.9	-9	4	9	5066	4
52	Cc1cc(NC(=O)C2Oc3ccccc3OC2C)no1 (configuration not stated)	4	5.8	-15	8	5	2408	-2
53	COc1ccc(/C=N/N2CCN(C3c4ccccc4-c4ccccc43)CC2)cc1OC	x	x	-12	x	x	2630	4
54	CC(Cc1cccs1)NC(=O)Nc1cccc(Cl)c1 (configuration not stated)	-7	-5.3	-42	4	-5	4182	5
55	Cc1ccc(S(=O)(=O)NCC(=O)OCC(=O)N2N=C(c3ccc(Cl)cc3)CC2c2ccco2)cc1C (configuration not stated)	-24	-8.3	-14	4	8	2553	-5
56	CCN(CC)C(=O)CN(C#N)c1nc(NC(C)C)nc(NC(C)C)n1	2	2.0	-34	13	14	5933	5
57	CC(SCC(=O)Nc1ccc(S(=O)(=O)N2CCCCC2)cc1)C(=O)O (configuration not stated)	1	7.6	0	x	x	3473	10
58	NNC(=O)c1c[nH]c2ccc(OCc3ccccc3)cc12	2	1.4	-26	-3	8	4105	5
59	Cc1ccc(Nc2nc(-c3ccc(S(=O)(=O)N4CCOCC4)cc3)cs2)cc1Cl	-20	-0.2	-1	5	10	1874	-3
60	OC(CSc1ccccc1Cl)CN1CCN(c2ccccc2F)CC1 (configuration not stated)	6	5.3	x	6	1	10127	2
61	COc1cc(C)c(CNc2cc(C)cc(C)c2)cc1C	82	-0.4	-18	-1	3	9969	-1
62	CC(C)CN(C(=O)CN(C)C(=O)Cc1ccc(Cl)cc1)c1c(N)n(CC(C)C)c(=O)[nH]c1=O	10	0.5	-16	4	2	u	4
63	CCOC(=O)[C@]12Cc3cc4c(cc3C1N(Cc1ccccc1)C(=O)c1ccccc12)OCO4 (some centres not stated)	-9	-2.7	x	13	6	x	x
64	Cc1sc(NC(=O)CCl)c(C(=O)c2ccccc2)c1C	4	-3.8	-5	10	14	u	2
65	CCOC(=O)CCCN1CC(O)=C(c2nc(-c3ccc(Cl)cc3)cs2)C1=N	-13	6.0	-7	0	6	4570	x
66	Cc1ccc2c(c1)C(=O)C(=O)N2c1ccc(C(F)(F)F)cc1	-4	2.7	-10	1	-7	3517	x
67	CCN(c1cccc(C)c1)S(=O)(=O)c1ccc2c(c1)NC(=O)CS2	0	4.4	-16	0	0	5479	2
68	COc1ccc(NC(=O)c2cc(=O)[nH]c3ccccc23)cc1	14	2.7	-7	2	1	4128	-3
69	Cc1cc(O)c(C(=O)/C=C/c2ccc(Cl)cc2)c(=O)o1	15	12	-32	13	19	3737	-5
70	N#CCCn1cc(C(CC(=O)c2ccc(Br)cc2)C(=O)O)c2ccccc21 (configuration not stated)	-1	1.7	-30	x	x	5668	5
71	CC(C)N1CCc2c(sc(NC(=O)c3cc(-c4cccs4)nc4ccccc34)c2C(N)=O)C1	x	x	-19	x	x	5945	-8
72	CC[C@]12c3[nH]c4cc(-c5ccco5)ccc4c3CCN1C(=O)[C@@H](CC(=O)NC/C=C(\C)CCC=C(C)C)C[C@@H]2C(=O)N1CCN(C(=O)C2CC2)CC1	-11	-1.8	-25	1	-5	4245	x
73	O=c1[nH]c(-c2ccccc2)c(-c2ccccc2)nc1[N+](=O)[O-]	13	4.3	5	0	-6	2847	2
74	CCOC(=O)CSc1snnc1-c1ccccc1	2	2.2	-25	-2	6	3263	-3
75	CCOC(=O)N1CCN(C(=O)CSc2nc3c([nH]c4ccccc43)c(=O)n2CCOC)CC1	-1	1.5	-16	10	1	5818	-3
76	CCOCC(=O)NC1CCSC1=O (configuration not stated)	1	5.7	-4	11	0	10049	2

# Nothing new here: six of the compounds above.
nr	SMILES	ugtP null kill	RN4220 kill	PrP UTR inh	Mtb hypoxia inh growth	Mtb hypoxia inh	Autofluor counter	BJeLR viability
71	CC(C)N1CCc2c(sc(NC(=O)c3cc(-c4cccs4)nc4ccccc34)c2C(N)=O)C1	x	x	-19	x	x	5945	-8
72	CC[C@]12c3[nH]c4cc(-c5ccco5)ccc4c3CCN1C(=O)[C@@H](CC(=O)NC/C=C(\C)CCC=C(C)C)C[C@@H]2C(=O)N1CCN(C(=O)C2CC2)CC1	-11	-1.8	-25	1	-5	4245	x
73	O=c1[nH]c(-c2ccccc2)c(-c2ccccc2)nc1[N+](=O)[O-]	13	4.3	5	0	-6	2847	2
74	CCOC(=O)CSc1snnc1-c1ccccc1	2	2.2	-25	-2	6	3263	-3
75	CCOC(=O)N1CCN(C(=O)CSc2nc3c([nH]c4ccccc43)c(=O)n2CCOC)CC1	-1	1.5	-16	10	1	5818	-3
76	CCOCC(=O)NC1CCSC1=O (configuration not stated)	1	5.7	-4	11	0	10049	2

# From PubChem BioAssay
